HIV Env fusion: inhibitors of HIV-1 Env-driven cell-cell fusion, primary screen, HeLa-JRFL effector, CEM21 target cells, luciferase | inhibition, % at 12.3 µM | 360,000 tested, 1.1% active;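 active = mean replicate inhibition score of at least 50 and every replicate individually at or above 50; inconclusive = only one of the two criteria met; inactive = mean below 50 and not all replicates reaching 50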;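 also: 0% = plate neutral controls and 100% = maraviroc near 300 nM; one replicate is shown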
CSC inhib: cancer stem cell viability inhibitors, primary screen, luminescence. 300,000 tested, 1.1% active. AID 2717, 2010. cancer stem cell-like cells viability. inhibition, % at 7.5 µM;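 active = mean at 75% or more and at least half the replicates too; inconclusive = mean and replicates disagree; tested in HMLE shEcad cells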;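 also: 0% = median of negative and 100% = median of positive control wells; the first replicate is given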
PABP FP inh: PABP poly(A) RNA binding inhibitors, primary screen, biochemical, fluorescence polarization, uHTS | Polyadenylate-binding protein 1 (Homo sapiens), P11940 | inhibition, % at 35 µM | 290,000 tested, 1% active | AID 2014, 2009;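 active = 50% or more with normal probe brightness, or confirmed in later tests; inconclusive = above 50% with abnormal brightness, or retests that disagree; inactive = below 50% or failed in later tests; about a fifth of its hits are not listed in these tables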;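 also: calls also rest on retests at 20 µM and on dose response follow-up; controls were probe without protein and protein plus probe with vehicle; some compounds called inactive have numbers as strong as hits; many hits fall short of the cut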
Target sequence (P11940 whole entry, looked up): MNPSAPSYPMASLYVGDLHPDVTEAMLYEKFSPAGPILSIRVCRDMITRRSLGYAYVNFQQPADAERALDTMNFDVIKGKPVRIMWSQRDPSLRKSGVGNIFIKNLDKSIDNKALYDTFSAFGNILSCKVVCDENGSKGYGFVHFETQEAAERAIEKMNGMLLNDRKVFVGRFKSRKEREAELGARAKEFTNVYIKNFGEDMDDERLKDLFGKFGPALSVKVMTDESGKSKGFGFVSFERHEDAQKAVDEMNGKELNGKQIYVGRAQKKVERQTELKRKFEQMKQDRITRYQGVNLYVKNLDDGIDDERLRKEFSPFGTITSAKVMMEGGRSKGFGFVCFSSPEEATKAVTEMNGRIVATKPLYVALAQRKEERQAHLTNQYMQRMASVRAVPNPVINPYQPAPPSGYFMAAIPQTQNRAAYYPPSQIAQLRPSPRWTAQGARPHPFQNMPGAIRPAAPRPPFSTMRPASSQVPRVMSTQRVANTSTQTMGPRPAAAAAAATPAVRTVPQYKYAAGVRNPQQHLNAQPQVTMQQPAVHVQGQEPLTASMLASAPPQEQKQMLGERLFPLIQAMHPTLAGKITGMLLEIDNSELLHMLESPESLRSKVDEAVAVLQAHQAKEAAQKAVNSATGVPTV
MT1-MMP act inh: blockers of MT1-MMP proenzyme processing, primary screen, HT1080 RFP-PRO-GFP cells, GFP/RFP fluorescence | Matrix metalloproteinase-14 (Homo sapiens), P50281 | GFP/RFP ratio fluorescence, overnight; percent of plate control window, DMSO zero | GFP/RFP ratio change, % at 20 µM | 360,000 tested, 0.061% active;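 active = GFP/RFP ratio change of at least 30% with cell ATP level not reduced by more than half and red fluorescence within 50% of control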; also: strong numbers were not always called active
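Compound: 20 µM single dose, 1% DMSO / System: HT1080 RFP-PRO-GFP cells / Controls: DMSO and RFP-L50D-GFP cell wells / Read-out basis: GFP/RFP fluorescence ratio / Schedule: overnight compound exposure at 37 °C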
UUG fidelity: modulators of yeast start codon fidelity, primary screen, whole organism, S. cerevisiae, single point, plate reader. S. cerevisiae UUG-firefly luciferase reporter, luminescence/redox ratio. activity score, % at 18.7 µM. 350,000 tested, 0.13% active. AID 602363, 2012;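 active = replicate mean at a twofold rise or more, about +100% in these data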;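 also: firefly luciferase made from a UUG start codon reports start codon fidelity; reporter light over untreated wells divided by growth signal over untreated wells; some hits fall short of that in this replicate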
Rce1 inh: yeast Rce1p protease inhibitors, primary screen, biochemical, fluorescence, cell-free homogeneous; CAAX prenyl protease 2 (Saccharomyces cerevisiae (strain ATCC 204508 / S288c)), Q03530; yeast membranes, quenched prenylated peptide cleavage fluorescence; calls only; 290,000 tested, 0.27% active; AID 2563, 2010;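 active = fall in fluorescence gain of 50% or more versus controls, with final raw signal at or below 3038400; inconclusive = same 50% fall but final raw signal above 3038400; inactive = fall in fluorescence gain under 50%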;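 also: plate controls were neutral control wells for no effect and wells lacking membranes for full effect; tested at 10 µM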
eIF4H inh: human eIF4H binding inhibitors, primary screen, translation initiation inhibitor project, biochemical, uHTS, fluorescence polarization | inhibition, % at 35 µM | AID 2012, 2009 | 290,000 tested, 0.94% active | eIF4H fluorescence polarization binding assay;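 active = 50% or more with normal probe brightness, or confirmed in later tests; inconclusive = above 50% with abnormal brightness, or retests that disagree; inactive = below 50% or failed in later tests; about a fifth of its hits are not listed in these tables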;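 also: calls also rest on retests at 20 µM and on dose response follow-up; 0% = protein and probe with vehicle and 100% = probe without protein; strong numbers were not always called active; many hits fall short of the cut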
eIF4H inh retest: further read-out of eIF4H inh, marked with its call; inhibition, %; compound at 20 µM; confirmation average;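 mean of two retest wells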
PABP FP inh retest: second read-out of PABP FP inh, no call of its own (marks repeat the call); inhibition, %; compound at 20 µM; confirmation repeats;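 mean of two retest wells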
MT1-MMP act inh RFP: also measured in MT1-MMP act inh; calls as there; RFP signal change, %; measured here: RFP expression control read;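 0 = vehicle wells; hits needed this value within 50% of zero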
Active calls of the source: *; i = inactive; u = inconclusive; x = no result given; & = joins results of further samples.

SMILES	HIV Env fusion	CSC inhib	PABP FP inh	MT1-MMP act inh	MT1-MMP act inh RFP	UUG fidelity	Rce1 inh	eIF4H inh	others
CCOC(=O)N1CCN(c2c(NCCCN3CCCCCC3)c(=O)c2=O)CC1	-2	2	8	3	7	-9	i	-9
Cc1ccc(C)c(/C(O)=C2/C(=O)C(=O)N(CCN3CCOCC3)C2c2ccco2)c1 (configuration not stated)	x	-15	25	-13	-6	-19	i	55*	eIF4H inh retest=67*;PABP FP inh retest=30
Nc1c(Cl)ncnc1NCC(O)CO (configuration not stated)	3	-3	3	-1	0	x	i	2
COC(=O)C(Cc1c[nH]c2ccccc12)NC(=O)c1ccc2nc[nH]c2c1 (configuration not stated)	-79	x	x	0	5	-19	x	x
COc1ccc(C(O)c2nc(-c3cccc(C(=O)O)c3)cs2)cc1 (configuration not stated)	-32	x	x	-1	3	-9	x	x
CN(Cc1ccccc1)N=Nc1nc[nH]c1C(N)=O	-1	x	x	2	7	-40	x	x
O=C(N/N=C/c1cc(Br)cc(Br)c1O)c1cccc(S(=O)(=O)N2CCOCC2)c1	9	20	u	-1	4	x	i	u
COC(=O)c1cc(S(=O)(=O)N2CCN(c3ccc([N+](=O)[O-])cc3)CC2)c[nH]1	-8	9	6	-2	-5	4	i	0
O=C(N/N=C/c1ccc2c(c1)OCO2)c1ccc2c(c1)OCCO2	-33	62	1	-5	-1	x	i	-8
CN(C)C(=O)c1ccc(NC(=O)c2cccnc2)cc1	-69	-3	-3	6	9	-11	i	-4
O=C(O)c1cc(-c2ccc(Cl)s2)[nH]n1	3	-20	0	8	7	-8	i	-1
COc1ccccc1N1CCN(CCCCOc2c(OC)cccc2OC)CC1	4	-1	5	-5	1	-5	i	7
N#CCCN1CCN(S(=O)(=O)c2ccc(S(=O)(=O)NC3CCCC3)cc2)CC1	0	-4	-18	1	2	-9	i	-12
O=C(Cc1ccccc1)Nc1ccccc1C(=O)NCC1CCCO1 (configuration not stated)	20	-18	6	-1	4	-17	i	1
COc1cc(O)c(C(CC(=O)N2CCN(c3ccccc3)CC2)c2ccc3c(c2)OCO3)c(OC)c1 (configuration not stated)	-12	-15	-6	2	-1	1	i	-1
Cc1c(N2C(=O)c3ccccc3C2=O)c(=O)n(-c2ccccc2)n1C	x	-7	2	-1	1	-7	i	-2
CCOc1ccc(S(=O)(=O)N(C)CC(=O)NC2CCCC2)cc1	-6	-8	5	2	-2	0	i	14
CC1(c2ccc([N+](=O)[O-])c(CS(=O)(=O)c3ccccc3)c2)OCCO1	21	14	4	-3	-3	x	i	-1
COc1cc(OC)cc(-c2nnc(SCC(=O)Nc3ccc(C(=O)O)cc3)s2)c1	-13	-10	4	0	3	x	i	5
CCCCCN(C(=O)CCC(=O)OCC(=O)N(CC)c1ccccc1)c1c(N)n(CCCC)c(=O)[nH]c1=O	2	-12	x	-3	2	-4	i	x
COc1ccc(-c2nc3ccccn3c2NCc2ccc3c(c2)OCO3)cc1	x	27	5	-4	-2	-43	i	-9
CCOc1ccc2nc(N3CCCCCC3)sc2c1	x	18	-8	-1	-1	-18	i	-5
Cn1c(OCc2cccnc2)nc2c1c(=O)n(Cc1ccc(Cl)cc1)c(=O)n2C	35	-6	x	0	-9	27	i	x
COc1ccc(C(C(=O)NC(C)(C)C)N(CCO)C(=O)CCC(=O)Nc2cc(C)on2)cc1 (configuration not stated)	4	x	7	-3	5	2	i	-3
Cc1ccc(S(=O)(=O)NCc2ccc3[nH]c(C)cc3c2)cc1	-8	-4	7	-2	-1	-16	i	19

Overlap with the part before: 2 compounds, followed by the next part.
SMILES	HIV Env fusion	CSC inhib	PABP FP inh	MT1-MMP act inh	MT1-MMP act inh RFP	UUG fidelity	Rce1 inh	eIF4H inh	others
COc1ccc(C(C(=O)NC(C)(C)C)N(CCO)C(=O)CCC(=O)Nc2cc(C)on2)cc1 (configuration not stated)	4	x	7	-3	5	2	i	-3
Cc1ccc(S(=O)(=O)NCc2ccc3[nH]c(C)cc3c2)cc1	-8	-4	7	-2	-1	-16	i	19
COc1cc(C(CC(=O)Nc2ccc(C)cn2)N2Cc3ccccc3C2=O)cc(OC)c1OC (configuration not stated)	3	12	6	-3	-1	-18	i	6
CC(C)N(CCNC(=O)c1cn(C)c2ccc(S(=O)(=O)N(C)C)cc2c1=O)Cc1ccccc1	5	1	11	2	7	-12	i	-7
CCOc1ccc(-c2nnc(-c3ccco3)o2)cc1OCC	-35	-8	2	3	9	-8	i	-5
Cc1ccc(NC(=O)c2ccc(CSc3ccccn3)cc2)c(O)c1	-45	53	1	3	-7	x	i	-1
CCC(C(=O)NCCCN1CCCC1=O)n1c2ccccc2c2nc(=O)cc(C)n21 (configuration not stated)	28	-6	5	6	8	-5	i	-13
OC(c1ccc(F)c(F)c1)c1nc(-c2ccc3ccccc3c2)cs1 (configuration not stated)	-36	x	x	10	-1	15	x	x
COc1cc(C(=O)OCC(=O)Nc2cc(C)on2)cc(OC)c1OC	-5	-1	-6	19	-1	-12	i	-13
CCN1C(=O)C2C(c3ccc(O)c(OC)c3)NC(C)(C(=O)OC)C2C1=O (configuration not stated)	-135	-6	-5	-2	4	x	i	3
Fc1ccc(CN2CCN(C(=S)NCCc3ccccc3)CC2)c(Cl)c1	13	-2	-2	6	2	x	i	1
COc1ccccc1OCC(O)CNCc1ccc2c(c1)OCO2 (configuration not stated)	1	9	-8	0	1	-16	i	-3
CCCN(CC(=O)Nc1cc(C)on1)CC(=O)Nc1ccc(F)c(F)c1F	x	7	x	0	-3	-2	x	x
CCCCN(c1ccccc1)S(=O)(=O)c1cccc2cccnc12	13	-1	8	0	2	2	i	10
C/C(CC1(O)C(=O)N(Cc2ccccc2)c2ccccc21)=N\O (configuration not stated)	-56	-1	10	-4	3	0	i	1
CC(CNC(=O)c1ccc(N)cc1)NC(=O)c1ccc(N)cc1 (configuration not stated)	0	-11	3	-4	0	x	i	11
O=C(CN1CCN(c2ncccn2)CC1)Nc1ccccc1-n1cccc1	x	0	38	x	x	4	i	10
COC(=O)c1cn(NC(=O)Cc2cccc(C(F)(F)F)c2)c(=O)c2ccccc12	5	4	-9	-1	0	x	i	7
CC(=O)c1cccc(N(C(=O)CS(=O)CC(=O)Nc2ccc(F)cc2)C(C(=O)NC2CCCCC2)c2ccc(C)o2)c1 (configuration not stated)	x	-6	10	-4	-1	18	i	0
COc1ccc(C(=O)/C=C/c2cc(C(=O)O)cc3c2OCOC3)c(O)c1	-48	17	14	-5	-22	-5&1	i	11
CCOc1cc(C(=O)Nc2cc(C)ccn2)cc(OCC)c1OCC	29	-9	-8	1	-1	20	i	-5
CC(=O)Nc1ccc(S(=O)(=O)NCC(CCC(=O)O)C(F)(F)F)cc1 (configuration not stated)	-5	-14	5	-1	-2	x	i	-2
O=C1NC(Cc2ccccc2)c2nc3cc(F)ccc3c(=O)n2-c2ncccc21 (configuration not stated)	-3	x	x	1	2	-7	x	x
CN(C(=O)COC(=O)c1sc2ccccc2c1Cl)C1CCCCC1	-1	-4	-11	3	3	x	i	0
O=c1n(Cc2ccccc2)c2cc(Cl)cnc2n1Cc1ccccc1	x	19	10	-4	-1	-6	i	5
O=C(C1CC(Cl)CN1S(=O)(=O)c1ccc(Cl)cc1)N1CCOCC1 (configuration not stated)	2	-1	-4	0	3	x	i	-1
CCN1CCN(C(=O)c2ccc(CS(=O)(=O)Cc3ccccc3Cl)o2)CC1	33	x	x	3	4	-7	x	x

More results:
SMILES	HIV Env fusion	CSC inhib	PABP FP inh	MT1-MMP act inh	MT1-MMP act inh RFP	UUG fidelity	Rce1 inh	eIF4H inh	others
Cc1cnc(C(=O)OCC(=O)c2cc(C)n(C)c2C)cn1	-7	-20	23	-5	2	x	i	2
CCN(CC)S(=O)(=O)c1ccc(N=Nc2c(N)[nH]c(=O)[nH]c2=O)cc1	-13	-5	-9	5	9	-9	i	0
Cn1c(=O)n(C)c2cc(NC(=O)c3ccccc3)ccc21	18	x	x	6	9	3	x	x
CC(C)N(C)c1ncnc2c1ncn2[C@H]1CN(Cc2ccc(F)cc2)C[C@@H](CO)O1	-7	x	x	1	-3	2	x	x
N#C/C(=C(/O)COC(=O)c1ccc(Cl)c(S(=O)(=O)N2CCOCC2)c1)c1nc2ccccc2[nH]1	16	13	-2	-1	5	x	i	7
CCOC(=O)Nc1ccc(S(=O)(=O)N2CCC(c3nc4ccccc4[nH]3)CC2)cc1	17	x	x	-7	-4	-42	x	x
CCOc1cc(CNCc2cccs2)cc(Br)c1OCC	x	15	-1	2	-3	0	i	-4
O=C(Nc1cccc(-c2nnc(-c3ccccc3)o2)c1)c1ccc(Br)o1	x	38	0	4	-6	1	i	5
Cn1c(=O)c2ncn(CC(=O)NCCC3=CCCCC3)c2n(C)c1=O	32	-18	8	3	2	x	i	1
O=C(c1cccc(F)c1F)N1CCCc2ccccc21	0	-10	11	3	0	-7	i	9
CC1(C)CC(=O)C2=C(C1)N(c1ccccc1)C(=O)CC2c1ccsc1 (configuration not stated)	-20	-8	-1	-2	1	-8	i	4
CCOc1ccc(C(=O)C2CCN(CC(=O)Nc3ccccc3N3CCOCC3)CC2)cc1	70*	x	-7	-5	-14	9	i	-14
CC(C)NC(=O)N(C)C[C@@H]1Oc2cc(Br)ccc2S(=O)(=O)N([C@@H](C)CO)C[C@H]1C	-13	x	x	3	3	-3&-4&8	x	x
O=C(NCc1ccccc1Cl)c1cnccn1	x	0	-5	-5	2	-10	i	-4
CCOC(=O)c1ccc(NC(=S)N2CCC(C(N)=O)CC2)cc1	x	-2	-5	4	6	x	i	-11
Cc1cc(Cl)ccc1NC(=O)COC(=O)c1c(C)noc1C	5	0	x	1	0	-11	x	x
CN1CCN(S(=O)(=O)c2cccc(C(=O)N3CCN(c4ccccc4)CC3)c2)CC1	x	-7	x	-2	-5	-13	x	x
COc1ccc(N2CCN(C(=O)COC(=O)c3cc(S(=O)(=O)N(C)C)ccc3N3CCCC3)CC2)cc1	5	-11	x	-3	-3	7	i	x
CCN1CCN(C(=O)CCc2nnc(CCc3ccc(OC)cc3)o2)[C@@H](C)C1=O	-11	-14	5	3	3	-18	i	-5
COc1ccc(Oc2c(C=O)c3ccccc3n2C)cc1	x	6	2	5	-10	x	i	4
O=C(OC1CCCC1)c1ccc(Cl)cc1Cl	3	x	x	-1	3	-17	x	x
O=C(NC(=S)Nc1ccc2[nH]c(=O)[nH]c2c1)c1cccc(F)c1	5	4	3	-1	-4	-18	i	-2
COC(=O)c1cn(NC(=O)Cc2c(F)cccc2Cl)c(=O)c2ccccc12	-11	2	-6	0	-1	x	i	1
O=C(c1ccncc1)N(Cc1cc2ccccc2[nH]c1=O)C1CCCCC1	x	-2	-6	-14	-21	-1	i	0
COC(=O)N1c2ccccc2CCc2ccccc21	-24	4	12	-3	-4	-1	i	3

Two records picked at random from the list so far, as already listed:
SMILES	HIV Env fusion	CSC inhib	PABP FP inh	MT1-MMP act inh	MT1-MMP act inh RFP	UUG fidelity	Rce1 inh	eIF4H inh	others
CN1CCN(S(=O)(=O)c2cccc(C(=O)N3CCN(c4ccccc4)CC3)c2)CC1	x	-7	x	-2	-5	-13	x	x
O=C(NCc1ccccc1Cl)c1cnccn1	x	0	-5	-5	2	-10	i	-4
